Bioassay records from PubChem BioAssay.
RGS16-Gao HTS – RGS16-Galphao interaction regulator (human); O15492+P09471; bead-based flow cytometry RGS16-Galphao binding, fluorescence; actives lie on both sides; binding response (% of control), % at 10 µM; 0.38% of 220,000 active;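 active = below 25% or above 175%, edge rows of some plates excepted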;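 note: Galphao activated by GDP with aluminum fluoride before binding; 100% = wells without compound and 0% = beads without RGS; some results beyond the cut were filed as inactive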
Target sequence (O15492 whole entry, looked up): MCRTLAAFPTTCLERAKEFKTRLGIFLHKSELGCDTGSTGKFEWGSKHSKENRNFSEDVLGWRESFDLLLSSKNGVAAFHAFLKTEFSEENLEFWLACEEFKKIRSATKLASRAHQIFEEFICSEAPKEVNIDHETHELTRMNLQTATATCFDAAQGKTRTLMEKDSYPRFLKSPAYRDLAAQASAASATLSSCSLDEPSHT
Target sequence (P09471 whole entry, looked up): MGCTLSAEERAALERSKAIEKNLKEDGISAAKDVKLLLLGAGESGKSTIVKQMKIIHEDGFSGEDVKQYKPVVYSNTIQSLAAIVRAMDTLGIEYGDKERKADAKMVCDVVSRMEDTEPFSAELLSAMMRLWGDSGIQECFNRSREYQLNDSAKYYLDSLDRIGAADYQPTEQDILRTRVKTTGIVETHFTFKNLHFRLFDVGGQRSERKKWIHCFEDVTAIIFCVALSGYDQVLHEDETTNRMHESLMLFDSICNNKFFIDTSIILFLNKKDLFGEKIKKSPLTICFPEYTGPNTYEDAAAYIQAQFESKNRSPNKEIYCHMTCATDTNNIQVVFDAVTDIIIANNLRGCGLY
GALR2 ag – GALR2 (human) receptor agonism; AID 803; 0.48% of 140,000 active; O43603; activation, %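 (tested at 5 µM)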; GALR2-expressing cells, agonist activation read-out;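 active = above mean plus 3 SD of all compounds, about 5% in these data, not always enough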;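 note: 0% = vehicle buffer wells and 100% = reference agonist at full effect; tested in CHO reporter cells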
Target sequence (O43603 whole entry, looked up): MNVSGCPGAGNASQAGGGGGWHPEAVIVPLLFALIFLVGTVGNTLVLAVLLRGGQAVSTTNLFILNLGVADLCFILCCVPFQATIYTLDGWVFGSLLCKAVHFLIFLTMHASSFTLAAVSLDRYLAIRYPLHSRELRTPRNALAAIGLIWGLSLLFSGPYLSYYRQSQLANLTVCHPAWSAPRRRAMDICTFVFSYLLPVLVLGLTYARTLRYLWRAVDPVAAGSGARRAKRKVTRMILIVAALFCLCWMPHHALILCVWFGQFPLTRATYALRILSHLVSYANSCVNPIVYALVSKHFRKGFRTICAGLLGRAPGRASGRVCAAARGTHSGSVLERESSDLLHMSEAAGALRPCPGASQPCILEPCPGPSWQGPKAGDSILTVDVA
INS promoter inh – TRM-6 insulin promoter activity inhibition; TRM-6 cells (human fetal islet line), insulin promoter-eGFP reporter, imaging; reporter expression induced with tamoxifen; inhibition, % at 2 µM; 0.9% of 130,000 active; AID 1273;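 active = inhibition above the mean plus 3 SD, with well images judged a real hit on visual review, cut at about 60% in these data, passing the limit was not always enough; inconclusive = inhibition over the cutoff but images rejected on review; inactive = inhibition not above the cutoff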
PKD1 kinase inh – blocks activity of human protein kinase D1; Q15139; PKD1 kinase fluorescence polarization assay; inhibition, %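 (about 10 µM by stock and volumes)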; 0.056% of 200,000 active;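 active = inhibition of 50% or more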;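 note: controls were vehicle for no effect and a reference inhibitor for full effect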
HSV replic up – HSV replication enhancement; maximum fold increase; AID 1956; 0.005% of 220,000 active; HSV replication augmentation in cells, fold increase;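 active = peak rise of 1.5-fold or more in the series; inconclusive = self-fluorescent or not available for retest; tested in PC3 cells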;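 note: first round at 10 µM; read as green reporter fluorescence; hits show the peak of a series up to 25 µM; 1 = signal of infected wells without compound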
INS promoter inh cell count – second read-out of INS promoter inh, no call of its own (marks repeat the call); normalized cell count, %; measured here: cell count, toxicity; reference of the scale not given here;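 cells exposed to compound for 48 h; stained nuclei by imaging scaled within each plate; lower means fewer cells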
HSV replic up primary fold – also measured in HSV replic up; calls as there; fold increase; compound at 10 µM; measured here: primary screen fold increase 10 uM; tested in PC3 cells;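 GFP signal in the first replicate; 1 = infected wells without compound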
The depositor's hits bear a star; i = inactive; ? = inconclusive; . = no result given.

SMILES | RGS16-Gao HTS | GALR2 ag | INS promoter inh | INS promoter inh cell count | PKD1 kinase inh | HSV replic up | HSV replic up primary fold
O=C(Oc1ccc(Nc2ncnc3ccccc23)cc1)c1cccnc1 | 103 | . | . | . | -2 | i | 0.9
Cn1c(=O)n(-c2cccc(Cl)c2)c(=O)n1C | 99 | -3.1 | -38 | 108 | -5 | i | 1.1
Cc1cccc(NC(=O)CSc2nc(N)cc(N)n2)c1 | 128 | -0.5 | 4 | 137 | 1 | i | 1
O=C(NNc1cc(N2CCOCC2)nc(N2CCOCC2)n1)c1ccc(Cl)cc1Cl | 10* | 0.2 | -34 | 110 | -9 | i | 1.1
CN(C)S(=O)(=O)Nc1cc(F)cc(F)c1 | 94 | . | 22 | 114 | 1 | i | 0.99
Cc1cccc2[nH]c(-c3ccc(NC(=O)c4ccco4)cc3)nc12 | 101 | -3.2 | . | . | 0 | i | 0.84
O=C(NC1CCCCC1)c1ccc(S(=O)(=O)NCc2ccco2)cc1 | 85 | -2.6 | . | . | -6 | i | 0.61
Cc1cc(Nc2ncc(Cl)cc2Cl)n(-c2ccccc2C)n1 | 75 | -1.9 | 29 | 65 | -2 | i | 1.1
CN(/N=C/c1cc(Cl)cc(Cl)c1O)C(=S)NC(C)(C)C | 100 | . | . | . | . | i | 1.1
O=C(CSc1nc2c([nH]c3ccccc32)c(=O)n1-c1cccc(Cl)c1)N1CCOCC1 | 103 | 13* | . | . | -1 | i | 0.51
CN(C)S(=O)(=O)c1ccc(C(=O)N2CCCC2c2nc3ccccc3s2)cc1 (stereo unspecified) | 27 | -1.6 | -38 | 66 | -6 | i | 1
C/C(CC(=O)Nc1ccccn1)=N\NC(=O)C(=O)Nc1ccccc1C | 108 | -2.5 | . | . | 0 | i | 0.85
CNc1ncc(C(=O)c2ccc(-c3ccccc3)cc2)s1 | 101 | . | . | . | . | i | 0.94
CCCC(=O)NC(C)C(c1cccs1)N1CCN(C)CC1 (stereo unspecified) | 102 | -3.6 | . | . | -6 | i | 1.1
O=C(Nc1nc(COc2ccccc2)cs1)c1ccccc1F | 62 | -0.2 | -25 | 123 | 5 | i | 1
CC1CC(C)(C)NC(=S)N1CCCC(=O)NCCc1ccc(Cl)cc1 (stereo unspecified) | 98 | . | -73 | 86 | -9 | i | 0.94
O=c1oc2ccccc2c2c1nnn2CCO | 106 | . | . | . | 3 | i | 0.93
CCCC(=O)NC(c1ccc(OC)cc1)c1ccc2cccnc2c1O (stereo unspecified) | 105 | . | 7 | 42 | -3 | i | 0.65
COc1cccc(NC(=O)Nc2cccn(Cc3ccc(C)cc3)c2=O)c1 | 102 | . | . | . | -2 | i | 0.93
O=C(NC1CCCCC1)N(CCO)Cc1cc2cc3c(cc2[nH]c1=O)OCCO3 | 106 | -2.3 | -7 | 86 | -3 | i | 0.84
COc1ccc(-c2nnn(CC(=O)N(CC(=O)NC3CCCC3)Cc3ccco3)n2)cc1OC | 102 | . | -3 | 147 | 2 | i | 0.94
COc1ccc(CCNC(=S)Nc2ccc(C(C)C)cc2)cc1 | 93 | . | . | . | . | i | 0.9
Cc1onc(-c2c(Cl)cccc2Cl)c1NC(=O)NC1CCSC1 (stereo unspecified) | 102 | . | . | . | . | i | 1.1
CC(C)(C)NCc1cc2ccccc2[nH]c1=O | 94 | -0.7 | 21 | 81 | -1 | i | 1.1
CCOC(=O)c1cc(-c2cccs2)[nH]n1 | 128 | . | . | . | . | i | 0.89
S=C(Nc1ccccc1Cl)NC1CCN(Cc2ccccc2)CC1 | 105 | -1.5 | 9 | 86 | 1 | i | 0.96
CCc1cc2c3c(c1)C(C)CC(C)(C)N3C(=O)/C2=C1\SC(=O)NC1=O (stereo unspecified) | 101 | . | . | . | . | i | 1.1
CN(C)N=C1c2cc(S(=O)(=O)N3CCOCC3)ccc2-c2ccc(S(=O)(=O)N3CCOCC3)cc21 | 99 | -0.5 | . | . | -7 | i | 0.85
COc1ccc(C(C)=O)cc1CSc1ccccn1 | 99 | . | . | . | . | i | 0.85
O=c1cc(CO)oc(C(Nc2cccc([N+](=O)[O-])c2)c2ccccn2)c1O (stereo unspecified) | 96 | 0.7 | 37 | 121 | -6 | . | .
Cc1nc2cc(C(=O)NCCN3CCOCC3)ccc2n1-c1ccc(F)cc1F | 98 | -2.7 | . | . | -1 | i | 0.88
O=C(Nc1nc2ccccc2c(=O)[nH]1)c1ccccc1SCc1ccccc1 | 101 | . | . | . | -3 | i | 0.89
CN(C)c1ccc(/C=C2/C=C(c3ccc4c(c3)CCCC4)OC2=O)cc1 | 102 | . | . | . | . | i | 0.98
CCN1CCN(Cc2ccc(NC(=O)Nc3ccc(OC)cc3)cc2)CC1 | 101 | -0.3 | 10 | 116 | -8 | i | 0.96
Cc1ccc(SCCNC(=O)CN2C(=O)c3ccccc3S2(=O)=O)cc1 | 100 | -0.5 | . | . | 6 | i | 0.96
COc1cc(NC(=O)CS(=O)(=O)c2ccc(C)cc2)cc(OC)c1OC | 101 | -1.0 | 6 | 128 | 0 | i | 0.91
O=[N+]([O-])c1cccc(/C=N/Nc2nc(N3CCOCC3)nc(N3CCOCC3)n2)c1 | 120 | -2.2 | 34 | 45 | -6 | i | 0.94
CCS(=O)(=O)c1ccc2oc(SCC(=O)NCCc3ccc(OC)cc3)nc2c1 | 99 | . | 19 | 98 | -8 | i | 1.1
CC(C)(C)C(=O)Nc1nnc(SCc2cccc(F)c2)s1 | 102 | . | . | . | 3 | i | 0.96
O=C(O)c1ccc2[nH]c3c(c2c1)CSCC3 | 98 | -1.8 | 0 | 137 | 2 | i | 0.97
O=C(Cc1ccccc1)N1CCN(C(=O)c2ccc([N+](=O)[O-])cc2)CC1 | 115 | . | . | . | 1 | i | 1
c1cncc(CSc2ccc(-c3cccnc3)nn2)c1 | 101 | . | 50 | 148 | 4 | i | 0.9
CC1=Nc2ccccc2N=C(NC(=O)/C=C/C(=O)O)C1c1ccccc1 (stereo unspecified) | 92 | . | . | . | . | i | 1.3
CCOC(=O)c1cccc(NC(=O)c2cnc3ccccc3n2)c1 | 101 | -3.3 | -17 | 142 | -5 | i | 0.77
COC(=O)c1sccc1S(=O)(=O)Nc1ccc(S(N)(=O)=O)cc1 | 99 | . | . | . | . | i | 1

Part of the list above, with values under each structure:
The line under a structure holds: RGS16-Gao HTS | GALR2 ag | INS promoter inh | INS promoter inh cell count | PKD1 kinase inh | HSV replic up | HSV replic up primary fold
> O=C(Cc1ccccc1)N1CCN(C(=O)c2ccc([N+](=O)[O-])cc2)CC1
    115 | . | . | . | 1 | i | 1
> c1cncc(CSc2ccc(-c3cccnc3)nn2)c1
    101 | . | 50 | 148 | 4 | i | 0.9
> CC1=Nc2ccccc2N=C(NC(=O)/C=C/C(=O)O)C1c1ccccc1 (stereo unspecified)
    92 | . | . | . | . | i | 1.3
> CCOC(=O)c1cccc(NC(=O)c2cnc3ccccc3n2)c1
    101 | -3.3 | -17 | 142 | -5 | i | 0.77

Continued:
SMILES | RGS16-Gao HTS | GALR2 ag | INS promoter inh | INS promoter inh cell count | PKD1 kinase inh | HSV replic up | HSV replic up primary fold
COc1ccc(CN2CCN(Cc3ccccc3)C(CCO)C2)cc1OC (stereo unspecified) | 102 | . | . | . | 1 | i | 1
N#Cc1cc2c(nc1SCC(=O)Nc1sc3c(c1C#N)CCC3)CCCC2 | 103 | -0.7 | -12 | 150 | -13 | ? | .
CCN(CC(=O)Nc1cc(Cl)ccc1C)C(=O)C1CCCCC1 | 99 | . | -78 | 107 | -5 | i | 1.1
Cc1cccc(NC(=O)CCSc2nc(C)cc(C)n2)c1 | 96 | -2.7 | . | . | 3 | i | 1.1
CCCCn1c(SCC(=O)Nc2cc(C(F)(F)F)cc(C(F)(F)F)c2)nnc1C(CC)N(C)C (stereo unspecified) | 104 | -0.1 | -44 | 124 | -3 | i | 0.58
CCOc1cccc2sc(Nc3nc4ccc(NC(C)=O)cc4s3)nc12 | 110 | 8.1* | -21 | 132 | -2 | i | 0.58
CC(C)N1CCN(Cc2ccc(C#CC(C)(C)O)s2)CC1CCO (stereo unspecified) | 100 | . | . | . | -2 | i | 0.97
O=C(NCCN1CCOCC1)c1cn(CCc2ccccc2)nn1 | 101 | -1.4 | 21 | 111 | 0 | i | 0.99
O=C(O)CN1C(=O)c2ccc(Oc3ccc4c(c3)C(=O)N(CC(=O)O)C4=O)cc2C1=O | 103 | . | . | . | . | i | 0.95
Cc1cc(C(=O)Nc2ccc3c(c2)OCCO3)co1 | 163 | -1.8 | . | . | -5 | i | 0.91
O=C(O)c1ccccc1Nc1ccc(OC(F)F)cc1 | 113 | . | -36 | 101 | -3 | i | 1
c1ccc(-c2ccc(OCCOCCn3cncn3)cc2)cc1 | 100 | -1.4 | -71 | 95 | -2 | i | 0.94
O=C(NCc1nnc(SCC(=O)N2CCCC2)o1)c1c(F)cccc1Cl | 100 | -2.9 | 14 | 95 | -4 | i | 0.99
COc1ccc(N2C(=O)CCC(C(=O)NCc3ccccn3)C2c2ccc(F)cc2)cc1 (stereo unspecified) | 109 | -3.0 | 32 | 56 | -5 | i | 0.87
COC(=O)c1ccc(NC(=O)c2cccc(Cl)c2)o1 | 81 | -1.3 | -70 | 133 | 7 | i | 0.89
COc1ccccc1Cn1c(=S)[nH]c2cc(C(=O)NCC3CCCO3)ccc2c1=O (stereo unspecified) | 102 | . | -7 | 86 | 2 | i | 0.89
CCNC(=S)NNC(=O)CCn1c2ccccc2c2ccccc21 | 101 | -2.8 | . | . | 17 | i | 0.9
O=C(Oc1cccc(-n2cnnn2)c1)c1ccccc1 | 111 | . | . | . | -11 | i | 0.9
CCNC(=S)NCc1ccc2[nH]c(C)cc2c1 | 99 | -1.5 | 7 | 100 | 4 | i | 0.91
CCCn1c(SCN2C(=O)c3ccccc3C2=O)nc2cc(Cl)ccc2c1=O | 99 | -0.3 | 17 | 146 | -2 | i | 0.95
Cc1nonc1NC(=O)CSc1nnc(-c2ccoc2C)n1CC(C)C | 89 | -0.3 | . | . | 1 | i | 0.99
COc1cccc(-c2nn(C)c3sc(C(=O)NCc4ccc(C)o4)cc23)c1 | 88 | -0.7 | 62* | 67* | 0 | i | 0.89
CCCNc1nc(=S)n(-c2ccccc2)c(C)c1C(C)=O | 99 | . | . | . | 3 | i | 1.1
Cc1ccc(NC(=O)O/N=C2\CCCCC2c2ccc([N+](=O)[O-])cc2[N+](=O)[O-])cc1 (stereo unspecified) | 104 | -2.6 | 52 | 89 | -11 | . | .
O=C1CN=C(Nc2cccc(C(F)(F)F)c2)N1C1CCCC1 | 112 | -1.4 | -171 | 88 | 2 | i | 0.68
COc1ccc(-c2nc(-c3ccccc3)ncc2S(C)(=O)=O)cc1 | 101 | . | 0 | 90 | -7 | i | 0.95
COc1ccc(C(=O)N/C(=C\c2ccc3c(c2)OCO3)C(=O)Nc2cccc(C(=O)O)c2)cc1 | 102 | . | 19 | 124 | 0 | i | 1
COC(=O)c1nc[nH]c1C(=O)OC | 96 | . | . | . | . | i | 1.3
CC1=CC2=NC(=O)/C(=C\c3cccn3CCOc3cccc(C)c3)C(=N)N2O1 | 106 | -0.4 | -27 | 86 | 3 | i | 0.91
CCCOc1ccc(/C(O)=C2/C(=O)C(=O)N(CCOC)C2c2cccnc2)cc1 (stereo unspecified) | 106 | -2.5 | . | . | -4 | . | .
Cc1ccc2c(c1)C1CN(C)CCC1N2C(=S)Nc1ccc(OC(F)F)cc1 (stereo unspecified) | 98 | . | . | . | -6 | i | 0.91
N#C/C(=C\c1ccc(OC(=O)c2ccc(Cl)s2)cc1)c1nc2ccccc2[nH]1 | 101 | 0.0 | 27 | 119 | -5 | ? | .
O=C(CN(Cc1ccco1)C(=O)CNS(=O)(=O)c1ccc(F)cc1)NCCc1ccccc1 | 216 | -0.7 | . | . | -7 | i | 0.91
O=C(O)CC(SCC(=O)Nc1ccc(S(=O)(=O)N2CCCC2)cc1)C(=O)O (stereo unspecified) | 100 | . | . | . | 2 | i | 0.64
CSc1n[nH]c(NC(=O)c2c(-c3c(Cl)cccc3Cl)noc2C)n1 | 104 | . | . | . | . | i | 0.98
Cn1nc(C(=O)OCC(=O)c2ccc[nH]2)c2ccccc2c1=O | 107 | . | -6 | 132 | 4 | i | 1.1

2 compounds picked at random from the list so far:
SMILES | RGS16-Gao HTS | GALR2 ag | INS promoter inh | INS promoter inh cell count | PKD1 kinase inh | HSV replic up | HSV replic up primary fold
CSc1n[nH]c(NC(=O)c2c(-c3c(Cl)cccc3Cl)noc2C)n1 | 104 | . | . | . | . | i | 0.98
N#C/C(=C\c1ccc(OC(=O)c2ccc(Cl)s2)cc1)c1nc2ccccc2[nH]1 | 101 | 0.0 | 27 | 119 | -5 | ? | .
